Bioassay records as filed in PubChem.
Sfp inh – inhibitors of Bacillus subtilis Sfp phosphopantetheinyl transferase. Q9F4F7. Biochemical Sfp PPTase activity, qHTS. Potency, µM, inactives show max response, negative = inhibition, hits mostly inhibitors. 3.5% of 310,000 active. AID 1490; active = well fitted inhibition curve with a large enough effect; inconclusive = small, poorly fitted or top-dose-only effect, or another doubt; inactive = no such curve, though single readings can be large or run the other way;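 also: the enzyme is Sfp with the accession as filed and its product quenches rhodamine fluorescence; potency is read from the fitted curve at half-maximal effect; 0% = enzyme reaction without inhibitor and -100% = no enzyme wells; top concentration of the series not given in the record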
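Compounds were incubated with enzyme (final 15 nM) for 15 min at room temperature before substrate addition started the reaction. Fluorescence at 525 nm excitation, 598 nm emission was recorded immediately and after 30 minutes.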
PINK1 modulator – changes PINK1 expression | 0.2% of 410,000 active | Potency, µM (top dose mostly 76.6 µM), for the others: at the highest dose activation (PINK1 increase), usual class: activators | PINK1 immunofluorescence, high-content cytometry, 24 h | AID 624263; active = well fitted activation curve with a large enough effect; inconclusive = small, poorly fitted or top-dose-only effect; inactive = flat fitted curve, though single readings scatter; cell line not stated here;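 also: potency is read from the fitted curve at half-maximal effect; % of control where 0% means no effect; nearly all actives have a fitted effect of over 65% in size; a mitochondrial uncoupler was the plate control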
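Stable cell line treated 24 h with compounds at 5 concentrations (CCCP controls), then fixed and immunostained for PINK1 plus nuclear and cell stains; PINK1 immunofluorescence quantified by laser-scanning microplate cytometry.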
TRPML1 ag – human mucolipin-1 channel agonism | TRPML1-expressing cells, Ca2+ dye fluorescence, FDSS; host cell line not named in the record; reference of the full effect not given here | 0.12% of 410,000 active | activation, % (no concentration beside the values) | Q9GZU1; in the data active = activation above about 50%; inconclusive = about 30% to 50%; inactive = below about 30%; also: 0% is about no effect; the text of the record puts the active cut at 80%
Target sequence (Q9GZU1 whole entry, looked up): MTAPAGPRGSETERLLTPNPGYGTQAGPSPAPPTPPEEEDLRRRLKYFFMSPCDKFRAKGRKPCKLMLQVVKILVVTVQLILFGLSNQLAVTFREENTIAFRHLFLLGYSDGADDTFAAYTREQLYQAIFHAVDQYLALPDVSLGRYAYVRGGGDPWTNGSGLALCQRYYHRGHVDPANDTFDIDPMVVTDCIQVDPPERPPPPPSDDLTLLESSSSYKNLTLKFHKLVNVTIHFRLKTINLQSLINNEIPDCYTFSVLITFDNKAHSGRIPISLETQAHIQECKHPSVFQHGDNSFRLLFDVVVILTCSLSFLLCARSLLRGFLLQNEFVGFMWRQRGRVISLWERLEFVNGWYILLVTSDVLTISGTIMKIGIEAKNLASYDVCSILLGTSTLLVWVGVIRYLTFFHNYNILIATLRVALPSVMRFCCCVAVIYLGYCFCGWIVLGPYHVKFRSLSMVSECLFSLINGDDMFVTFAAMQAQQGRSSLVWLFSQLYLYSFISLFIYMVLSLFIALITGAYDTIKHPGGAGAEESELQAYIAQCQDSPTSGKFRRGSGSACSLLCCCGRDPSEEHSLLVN
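Tetracycline-induced TRPML1-DL cells are seeded and incubated overnight before loading with a no-wash Ca2+ dye and quencher. Agonist activity is taken from the 110 s fluorescence read following compound pin-transfer on an FDSS, before EC80 54-4 challenge.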
TRPML1 blocker – blocks the human TRPML1 channel | Q9GZU1 | TRPML1-inducible cells, Ca2+ dye fluorescence, FDSS; stronger effect = lower value; inhibition of EC80 agonist-evoked calcium signal | activity change, negative = inhibition, % (concentration not given with the values) | 0.02% of 390,000 active | AID 624415; in the data active means activity change below about -50%; inconclusive means about -30% to -50%; inactive means above about -30%;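 also: stimulus is agonist 54-4 at its EC80 concentration; % is scaled to controls: 0 for no effect and ±100 for the full control effect; compound concentration not given in the record; the text of the record puts the active cut at -80%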
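Calcium fluorescence in TRPML1-DL cells induced overnight with Tet: a 110 s read after compound pin addition, then a 110 s antagonist read after challenge with 54-4 at 4 uM final (EC80).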
TRPV1 potentiator – human TRPV1 potentiation | Q8NER1 | TRPV1-expressing cells, Fluo-8 calcium influx, capsaicin EC20 potentiation; host cell line not named in the record; control for the full effect not named in the record | potentiation, % at 8.33 µM | 0.02% of 320,000 active | AID 540277; active means potentiation above 80%; inconclusive means 30% to 80%; inactive means below 30%; also: 0% is about no effect
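TRPV1-expressing cells were cultured overnight at 35.5C and loaded with Fluo-8 calcium dye for 40 to 90 min at room temperature. After a 10 s baseline, compound was added and calcium influx was read kinetically for 3 min (ex 480/em 520 nm).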
Menin-MLL FL inh – displaces fluorescein MLL peptide from human menin; AID 1766; 290,000 tested, under 10 active; FP activity change, % at 61.4 µM; Fluorescence polarization, fluorescein-MLL peptide displacement from menin; inconclusive = falling polarisation curve, or a change in total fluorescence; inactive = total fluorescence flat and polarisation flat or rising; no compound was filed as active; the % refers to the polarisation; negative = inhibition;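 also: % of control where 0% means no effect; inhibitors lower the polarisation; unlabelled MLL peptide was the positive control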
ClpP mod – qHTS Assay for Activators of ClpP. ATP-dependent Clp protease proteolytic subunit (Bacillus subtilis (strain 168)), P80244. purified B. subtilis ClpP, FRET peptide cleavage, 20 min. Potency, µM (doses to about 57.5 µM), without a hit: top-dose activity change, negative = active. 1.9% of 340,000 active. AID 651965, 2013; active = well fitted falling curve with a large enough effect; inconclusive = small, poorly fitted or top-dose-only effect; inactive = no such curve, though single readings can be large or run the other way; also: potency is read from the fitted curve at half-maximal effect; the source files actives as falling curves though it sought activators and does not explain the sign; nearly all actives have a fitted effect of over 65% in size; many hits overshoot -100%
Target sequence (P80244 whole entry, looked up): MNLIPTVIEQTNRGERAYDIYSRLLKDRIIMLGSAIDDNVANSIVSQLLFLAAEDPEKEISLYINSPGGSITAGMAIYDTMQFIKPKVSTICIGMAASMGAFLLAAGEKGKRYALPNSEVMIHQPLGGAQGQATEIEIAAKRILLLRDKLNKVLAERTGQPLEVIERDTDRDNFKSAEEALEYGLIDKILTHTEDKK
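FRET quenching reversal measured ClpP activation: 10 microg/mL B. subtilis ClpP at pH 8 with the FRET-FV decapeptide, read at 430 nm after 320 nm excitation. The 20-min minus 0-min signal was scaled between DMSO/no-enzyme wells and ADEP (5.8 microM final).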
Numbers without * were called inactive; u = inconclusive; x = not tested or not shown; & = joins results of further samples; [ ] = another dose, or the depositor's remark.

canonical_smiles,Sfp inh,PINK1 modulator,TRPML1 ag,TRPML1 blocker,TRPV1 potentiator,Menin-MLL FL inh,ClpP mod
COCC(=O)N(CCc1ccc(OC)c(OC)c1)Cc1cc2cc(C)ccc2nc1Cl,13%,-0.7%,-0.2,4,u,0.6,x
CO[C@H]1/C=C\O[C@@]2(C)Oc3c(C)c(O)c4c(O)c(c(C=NN5CCN(C6CCCC6)CC5)c(O)c4c3C2=O)NC(=O)C(C)=CC=C[C@H](C)[C@H](O)[C@@H](C)[C@@H](O)[C@@H](C)[C@H](OC(C)=O)[C@H]1C,x,2.8%,-0.8,x,x,x,2.3%
Fc1ccc(NC(=S)Nc2ccc(Cl)cc2)cc1,-14%,22%,1.2,-5,13,-3.0,x
CC1=C(C(=O)Nc2ccccc2)C(c2ccccc2C)n2ncc(C(=O)Nc3ccccc3)c2N1 (configuration not stated),x,u,1.1,17,x,x,-14%
NS(=O)(=O)c1ccc(CCNC(=O)CNC(=O)c2ccccc2Br)cc1,14%,2.2%,1.9,34,1,0.2,x
COc1cc(NS(=O)(=O)c2cccc3nsnc23)c(C(=O)O)cc1OC,-19%,-1.0%,-0.1,-3,-10,-0.1,-1.8%
O=c1cnc2cnc(Nc3ccccc3)nc2n1Cc1cccs1,0%,4.2%,x,x,x,1.0,x
COc1ccc(C(=O)CN2C(=O)NC3(CCc4ccccc43)C2=O)c(OC)c1 (configuration not stated),x,-3.1%,0.7,-4,0,x,-3.0%
O=C(CCOc1ccccc1)Nc1nnc(-c2ccc3c(c2)OCCO3)o1,5%,-1.0%,2.1,3,0,-1.5,x
Cc1cc(C)n(C(=O)c2ccncc2)n1,21%,x,x,x,13,4.3,x
Cn1cccc1C1C(C#N)=C(N)OC2=C1C(=O)CC(C)(C)C2 (configuration not stated),-5%,1.1%,-0.7,-2,-15,8.2,-0.4%
Cc1ccc(/C=N/NC(=O)CNC(=O)c2cccc([N+](=O)[O-])c2C)o1,-9%,1.4%,0.3,16,13,1.3,1.8%
COc1ccc(-n2c(=O)c(-c3ccc(F)cc3)nc3cnc(OC)nc32)cc1,3%,3.3%,x,x,x,-0.7,x
CC(=O)N(Cc1ccco1)C1(C(=O)NC2CCCCC2)CCCCC1,-4%,-1.3%,-0.3,8,-8,3.6,-0.4%
CCN(CC)S(=O)(=O)c1cccc(NC(=O)c2ccc(Br)cc2)c1,22%,-0.1%,0.0,2,-2,1.8,x
CCc1cccc2c1NC(=O)C21N2CCCC2C(C(=O)c2ccc3ccccc3c2)C12C(=O)Nc1ccccc12 (configuration not stated),23%,4.8%,2.5,29,1,1.8,-6.0%
C#CCOCCOCCOCCNc1nc(N2CCN(C(=O)C([C@@H](C)O)n3cc([C@@H](N)CCCCN)nn3)CC2)nc(N2CCN(C(=O)[C@H](CC(N)=O)n3cc(C(N)[C@@H](C)CC)nn3)CC2)n1 (some centres not stated),x,-0.2%,0.3,-2,x,x,1.1%
CO/N=C(/CS(=O)(=O)c1ccc(Br)cc1)c1ccc(OC)cc1,-12%,8.0%,0.9,1,26,1.7,-0.8%
Cc1c(NC(=O)c2cc(-c3cccs3)on2)c(=O)n(-c2ccccc2)n1C,14%,-0.9%[38.3 µM],-0.3,-4,8,6.4,-3.2%
O=C(Nc1ccc(NC(=O)c2ccc([N+](=O)[O-])cc2[N+](=O)[O-])cc1)c1ccco1,-13%,0.8%,0.7,12,0,-3.2,x
CCC1=C(OC(=O)N(CC)CC)N2C(=O)OC(=NCc3ccccc3)[C@]2(C)[C@H]2C1=CC[C@H]1C(=O)NC(=O)[C@H]12,8%&8%,-0.2%,1.4,23,u,1.3&3.2,-3.3%
Cc1ccc(CNC(=O)C2CCCN(c3nnc(-n4c(C)ccc4C)s3)C2)cc1 (configuration not stated),x,-0.8%,0.4,-15,x,x,7.6%
COc1ccc(C(O)c2nc(-c3cccc(O)c3)cs2)cc1 (configuration not stated),x,0.1%,-0.2,x,x,x,-1.0%
O=C(O)C(CC1CCCCC1)N1CCS(=O)(=O)CC1 (configuration not stated),-6%,1.1%,0.0,11,1,-0.7,x
CCN(CC)CCn1c(=N)n(CCOc2ccccc2)c2ccccc21,12%,9.6%[38.3 µM],0.1,12,8,-2.1,0.1%

Taken from above.
`COc1ccc(C(=O)CN2C(=O)NC3(CCc4ccccc43)C2=O)c(OC)c1` (configuration not stated) @ TRPML1 blocker = -4
`CCC1=C(OC(=O)N(CC)CC)N2C(=O)OC(=NCc3ccccc3)[C@]2(C)[C@H]2C1=CC[C@H]1C(=O)NC(=O)[C@H]12` @ TRPML1 ag = 1.4

Next results.
canonical_smiles,Sfp inh,PINK1 modulator,TRPML1 ag,TRPML1 blocker,TRPV1 potentiator,Menin-MLL FL inh,ClpP mod
N#Cc1c(NCCCO)nc(NCc2ccccc2)c2c1CCN(Cc1ccccc1)C2,-26%,3.1%,2.0,14,-6,2.1,466%
CC1(C)CC(=O)C([N+](=O)[O-])=C(NCCCO)C1,12%,0.0%,-0.4,38,3,-2.5,0.9%
Cc1ccc(NC(=O)CSc2nnc(-c3cc(C)[nH]n3)n2N)cc1,21%,-0.7%,-0.8,3,5,x,0.0%
C[C@@H](C(=O)Nc1ccc2ccccc2c1)[C@H]1C[C@]1(C)[C@H](NC(=O)c1cnccn1)c1ccccc1,8%&11%,1.0%,0.8,-8,13,-0.7&11,-0.2%
CCn1c2ccccc2c2nc3ccccc3nc21,-18%,-2.8%,0.6,3,0,-1.3,-11%
Cc1ccccc1NC(=O)CCC(=O)OCC(=O)c1ccc(-c2ccccc2)cc1,-7%,0.2%,-1.0,16,6,-0.8,4.8%
CC(=O)N1CCN(c2ccccc2NC(=O)c2ccc(-c3cccc([N+](=O)[O-])c3)o2)CC1,-6%,11%,1.0,27,21,-1.2,x
O=C(COC(=O)c1cccc(O)c1)Nc1ccc(OC(F)F)cc1,10%,0.5%,-0.5,-8,22,0.2,-1.5%
Cc1ccc(CN2CC(N3CCCC3)CS2(=O)=O)cc1 (configuration not stated),x,1.4%,-0.6,x,x,x,-2.4%
Cn1ncc(N)c1C(=O)Nc1cccc(C(F)(F)F)c1,16%,3.0%,1.9,2,3,-0.2,0.2%
CCc1ccc(NC(=O)c2ccc3c(=O)n4c(nc3c2)CCCCC4)cc1,20%,-1.5%,2.1,9,-6,3.1,-1.3%
CCOP(=O)(OCC)C(Nc1cccc([N+](=O)[O-])c1)c1ccccc1 (configuration not stated),8%,2.0%,-0.8,-8,-1,5.7,-2.1%
O=C(Nc1nc2c(F)cc(F)cc2s1)c1ccccn1,-7%,4.8%,-0.2,13,7,8.6,x
CCOc1ccccc1-c1nnc(SCC(=O)NC2(C#N)CCCC2)o1,x,0.5%,1.0,-5,25,x,-2.0%
Cc1c(Cl)cccc1NC(=O)C(C)n1nc(C)c2c(C)n(-c3ccccc3)nc2c1=O (configuration not stated),x,-1.7%,-0.8,5,x,x,1.8%
COc1ccccc1Cn1cc(C(=O)c2ccc(Cl)cc2)c(=O)c2cc3c(cc21)OCCO3,x,-1.0%,2.7,-28,x,x,-2.5%
Cc1ccccc1N1CCN(CCN2C(=O)CC(=C3c4ccccc4-c4ccccc43)C2=O)CC1,x,3.4%,-1.1,-3,x,x,-0.7%
CCN(C(=O)CSc1nc2ccc(Cl)cc2[nH]1)C1CCS(=O)(=O)C1 (configuration not stated),x,-0.1%,0.2,-1,x,x,-1.0%
CCOc1ccccc1C(=O)NCC(=O)NCCCc1ccccc1,16%,1.4%,-0.4,11,15,0.4,-3.3%
CN1CCN(C(=O)c2cc(-c3ccco3)on2)CC1,0%,-0.2%,0.5,-18,-2,-1.1,-2.9%
O=C(CO/N=C/c1ccc(OC(F)F)cc1)NCc1ccc(F)cc1,-23%,3.9%,1.4,-3,-7,7.2,x
COc1ccccc1C(=O)N/C(N)=N/c1nc2ccccc2o1,9%,11%,-0.6,-27,2,-1.1,96%
[O-]/C(=C(\C(=S)NCc1ccc2c(c1)OCO2)[n+]1ccccc1)c1ccc(Cl)s1,40µM*,23%,3.4,20,-8,4.4,-1.4%
Cc1ccccc1C(=O)NC(CC(C)C)C(=O)OCC(=O)c1c(N)n(C)c(=O)n(C)c1=O (configuration not stated),-2%,-0.9%,2.3,11,5,-0.4,x
CCOC(=O)N1CCN(C(=S)Nc2ccccc2C(C)C)CC1,22%,-1.1%,-0.2,7,2,0.0,x
COc1ccc(NC(=S)N2CCC(c3ccccc3)C2)cc1 (configuration not stated),12%,-2.6%,1.0,0,-4,-1.2,0.8%
CCN(CC)CCNCC(=O)N1c2ccccc2CCc2ccc(NC(=O)OC)cc21,15%,0.7%,-0.2,-1,-2,-4.3,x
CCOC(=O)N1CCC(N2CCN(Cc3ccc(F)c(F)c3)C(CCO)C2)CC1 (configuration not stated),21%,0.1%,-0.4,3,0,-0.1,0.9%
COc1ccc(CNC(=O)c2ccc(-c3nc(CSc4ccc(C)cc4)c(C)o3)cc2)c(OC)c1,x,3.8%,-0.1,-2,x,x,u
CC1CCC(C(=O)NC(C(=O)Nc2ccccn2)C(C)C)CC1 (configuration not stated),11%,0.0%,0.1,10,3,-1.0,x
CCCC(=O)c1cc2ccccc2oc1=O,9%,-0.7%,-0.3,24,17,-6.7,-3.9%
COC(=O)CSc1nnc(-c2ccoc2C)n1-c1ccc(OC)cc1,-12%,1.1%,0.1,-8,-21,3.7,1.2%
O=C1Nc2ccccc2OC1CC(=O)N1CCCC1 (configuration not stated),u,-0.4%,0.3,-5,12,4.3,-1.0%
COc1cccc2sc3cc(NCCCN4CCOCC4)ccc3c(=O)c12,x,-1.1%,-0.2,2,x,x,-25%
COc1ccc(CN2CC(C(N)=O)Oc3ccccc32)cc1F (configuration not stated),5%,-0.1%,-0.1,20,0,7.6,x
CCOC(=O)N1CCN(S(=O)(=O)c2ccc(C(=O)Nc3nnc(C)o3)cc2)CC1,1%,1.3%,0.4,-7,1,0.9,-3.1%
CCc1nc2sccc2c(=O)[nH]1,19%,3.5%,0.1,3,-2,-3.1,x
CS(=O)(=O)N1CCSC1c1ccc(Br)cc1 (configuration not stated),17%,0.1%,x,x,2,-0.4,1.5%
